VACV Venus inh = qHTS for Stage-Specific Inhibitors of Vaccinia Orthopoxvirus: Venus Reporter Primary qHTS | Vaccinia virus Venus reporter expression, fluorescence | Potency, µM (series often up to 36.5 µM), for inactives: at the highest dose activity change, negative = inhibition, actives largely listed as inhibitors | actives 0.46% (n = 330,000) | AID 720580, 2013; active means well fitted inhibition curve with a large enough effect; inconclusive means small, poorly fitted or top-dose-only effect; inactive means no such curve, though single readings can be large or run the other way; tested in A549 cells; further: nearly all actives have a fitted effect of over 30% in size; inactives centre near -10
Vaccinia mCherry = qHTS for Stage-Specific Inhibitors of Vaccinia Orthopoxvirus: mCherry Reporter Primary qHTS; Vaccinia virus mCherry reporter infection, fluorescence; about a quarter of the inactives have no number; Potency, µM (doses to about 36.5 µM), without a hit: top-dose activity change, negative = inhibition, actives largely listed as inhibitors; actives 0.63% (n = 310,000); AID 720579, 2013; active = well fitted inhibition curve with a large enough effect; inconclusive = small, poorly fitted or top-dose-only effect; inactive = no such curve, though single readings can be large or run the other way; tested in A549 cells; further: nearly all actives have a fitted effect of over 35% in size; inactives centre near -10
* = called active by the depositor; i = inactive; u = inconclusive; x = not tested or not shown; & = joins results of further samples; [ ] = another dose, or the depositor's remark. On the % scale 0 is the no-effect control and ±100 the full control effect; potency means the concentration at half of the fitted maximal effect.

no.	SMILES	VACV Venus inh	Vaccinia mCherry
1	COc1ccccc1C(C(C(=O)c1ccccc1)N1CCOCC1)N1CCOCC1 (configuration not stated)	-1%	u
2	CC(C)C[C@H](NC(=O)c1nc[nH]c1C(=O)NC1CCNCC1)C(=O)OC(C)(C)C	-10%	-29%
3	Cn1c(=S)[nH]c2cc(C(=O)N3CCN(C(=O)c4ccccc4)CC3)ccc2c1=O	-18%	-22%
4	Cc1cc(C(=O)NCCCN2CC(C)CC(C)C2)n(-c2ccccc2)n1 (configuration not stated)	-2%	-9%
5	CN1C(=O)Cc2cc(S(=O)(=O)CCC(=O)N3CCN(c4ccccc4F)CC3)ccc21	-15%	-11%
6	CCCCCOc1ccc(Cn2c(=O)oc3ccccc32)cc1	-17%	-19%
7	Cc1ccc2nc(SCC(=O)c3ccccc3)nc(=O)n2c1	-16%	-16%
8	Cc1noc(NS(=O)(=O)c2ccc(NC(=O)c3ccc(Cl)c(S(=O)(=O)N(C)c4ccccc4)c3)cc2)c1C	-11%	-11%
9	Cc1ccc(-c2ccc(/C=C(\C#N)C(N)=S)n2C)cc1	-5%	-10%
10	CCc1ccc(S(=O)(=O)c2cn(C)c3cc(N4CCOCC4)c(F)cc3c2=O)cc1	-6%	6%
11	COC(=O)CSc1nnc(-c2ccc(NS(=O)(=O)c3ccccc3)cc2)o1	-28%	x
12	CC(=O)NC(Cc1ccccc1)C(=O)OCC(=O)c1ccc(F)cc1 (configuration not stated)	-6%	i
13	Cc1cccc(C)c1OCCNC(=O)OCc1ccccc1	-23%	u
14	COC(=O)CCC(=O)Nc1nc(-c2ccccc2)cs1	-21%	-4%
15	NC(=O)CN1CCOCCOCCN(CC(N)=O)CCOCC1	-11%	i
16	CCOC(=O)c1c(NC(=O)c2cc3nc(-c4ccc(OC)cc4)cc(C(F)(F)F)n3n2)sc(C)c1C	-2%	i
17	CC(C)c1ccc(CC(=O)N2CCC2(C)C(=O)NS(=O)(=O)c2cccc(OC(F)F)c2)cc1 (configuration not stated)	4%	-12%
18	CCCCN1C(=S)NC[C@@H]1Cc1cccc2ccccc12	-6%	u
19	Cc1cc(/C=C2/SC(=O)N(CC(=O)N3CCCC3)C2=O)c(C)n1C	3%	0%
20	C/C(=N/NS(=O)(=O)c1ccccc1)c1ccc(NC(=O)C(F)(F)F)cc1	-3%	-13%
21	O=C(CCCCn1c(=O)c2ccccc2n(CC(=O)Nc2cccc(F)c2)c1=O)NCc1ccco1	-18%	x
22	COc1ccc(NC(=O)c2nc3nc(C)cc(C(F)F)n3n2)c(C)c1	-9%	-3%
23	Cc1ccccc1-c1cnc(C(O)c2ccc(Cl)cc2)[nH]1 (configuration not stated)	-10%	13%
24	COc1cc(CN2CCN(c3ccccc3F)CC2)cc(OC)c1O	-17%	-8%
25	Cc1ccc(CNC(=O)CN(C(=O)C2(C)CC(=O)N=C3C=CC=CN32)c2cccc(C)c2C)cc1 (configuration not stated)	-3%	4%
26	COc1ccccc1NC(=O)CCC(=O)OCC(=O)c1ccc(C)c([N+](=O)[O-])c1	-10%	i
27	O=C(COc1cccc2c1CCN(Cc1ccccc1)C2=O)N1CCCCC1	-14%	-25%
28	CCOC(=O)C1=C(COC(=O)CCNS(=O)(=O)c2ccc(NC(C)=O)cc2)NC(=O)NC1C (configuration not stated)	-19%	-28%
29	CC(C)CN(CC(C)C)c1nc(N)c(C#N)c(CC#N)c1C#N	-25%	x
30	CCn1cc(C(=O)NCC(OC)OC)c(=O)c2cc(S(=O)(=O)N3CCCC3)ccc21	-21%	-25%
31	COC(=O)c1c(-c2ccc(Cl)cc2)noc1N1CCN(c2ccc(F)cc2)CC1	-12%	-2%
32	NC12CC3CC(C1)CC(O)(C3)C2	-3%	i
33	CCOc1ccccc1NC(=O)CCNS(=O)(=O)c1ccc2c(c1)CCN2C(=O)C1CC1	4%	-11%
34	CC(=O)Nc1ccccc1NC(=O)C(F)(F)F	-11%	-10%
35	CCn1cc(C(=O)O)c(=O)c2cc(F)c(N3CCN(C(=S)NC(=O)c4ccccc4C)CC3)cc21	-13%	-12%
36	CCCn1c2ccccc2c2cnn(CC(=O)N(C)c3ccccc3CC)c(=O)c21	-23%	-12%
37	COc1ccc(NC(=S)N/N=C/c2cccn2Cc2ccccc2F)cc1	-4%	-9%
38	N#CC(=C(O)COC(=O)c1ccc2c(c1)OCCO2)c1nc2ccccc2[nH]1	-6%	i
39	COc1ccc(CCNC(=O)CCNC(=O)c2ccc(Br)cc2)cc1OC	0%	-15%
40	CS(=O)(=O)Nc1ccccc1-c1ccc2nccn2c1	-3%	1%
41	Cc1ccc(S(=O)(=O)N(Cc2cc3cccc(C)c3[nH]c2=O)c2ccccc2)cc1	-20%	i
42	CNC(=S)Nc1cccc(C(=O)OC)c1	-2%	i
43	CN(CC(O)CON=C1c2ccccc2-c2ccccc21)S(=O)(=O)c1ccc(Br)cc1 (configuration not stated)	u	-12%
44	COc1ccc(CNC(=O)CCn2cccc2)cc1	-2%	-15%
45	CC1=C(C(=O)N(C)C)CC(CC(=O)NCc2cccs2)C(=O)N1Cc1ccccc1 (configuration not stated)	-17%	-27%
46	COc1ccc(C(=O)N2CCCCC2c2cc(C(=O)Nc3ccc(OC)cc3C)no2)cc1 (configuration not stated)	-9%	-6%
47	COc1ccc(CCNC(=O)Cc2c(C)c3cc(OC)c(OC)cc3oc2=O)cc1	-2%	-7%
48	CN(C)/N=C/c1cn(-c2ccccc2)nc1-c1cccnc1	-17%	-22%
49	S=c1[nH]nc(-c2ccc(Br)cc2)n1Cc1ccccc1	-4%	i
50	COCCNC(=O)c1ccc2c3n(nc2c1)-c1ccccc1CO3	-11%	4%

Additional structures:
no.	SMILES	VACV Venus inh	Vaccinia mCherry
51	CC(C(=O)O)N(c1ccccc1Cl)S(C)(=O)=O (configuration not stated)	-10%	i
52	O=C(COc1coc(CN2CCc3ccccc32)cc1=O)N1CCCCC1	-7%	-11%
53	Cn1cc(C(=O)N/N=C/C2=C(N3CCOCC3)C(=C/c3ccc([N+](=O)[O-])cc3)/CC2)ccc1=O	-4%	-6%
54	Cc1cccc(NC(=S)N2CCN(S(=O)(=O)c3cccc(F)c3)CC2)c1	-23%	-24%
55	CCSc1nc2c(c(=O)[nH]1)C(C(C)C)C(C#N)=C(N)O2 (configuration not stated)	-4%	-10%
56	Cc1csc(NC(=O)c2cc3c(s2)CCCC3)n1	-27%	-9%
57	COc1ccc(/C=N/N(CCC(=O)NC(C)(C)C)C2=NS(=O)(=O)c3ccccc32)cc1	-10%	i
58	COc1ccc(-c2ccc(SCC(=O)c3cccs3)nn2)cc1	-19%	-17%
59	C=CCn1c(N)cc(=O)nc1SCC(=O)Nc1ccc(C(=O)OC)cc1	-4%	-10%
60	COc1ccc(NC(=O)Cn2cnc3c(nc4n3CCCCC4)c2=O)c(OC)c1	10%	4%
61	CCC(C)n1c(SCC(=O)/C(C#N)=C(\C)N)nc2ccccc2c1=O (configuration not stated)	u	u
62	COc1ccc(-c2cc(C(F)F)n3ncc(C(=O)Nc4cccc(S(=O)(=O)N5CCOCC5)c4)c3n2)cc1	-6%	-15%
63	CC(C)(C)c1ccc(-c2noc(-c3ccc4c(c3)CCO4)n2)cc1	-6%	-3%
64	C[C@@H]1CN([C@@H](C)CO)C(=O)c2cc(Br)cnc2O[C@H]1CN(C)C(=O)NC1CCCC1	-8%	-11%
65	COc1ccc(-n2c3c(cc(C(=O)NNc4ccccc4C)c2=O)C(=O)CC(C)(C)C3)cc1	0%	u
66	O=C(Cc1ccc(F)cc1)N1CCC(CC2CC(c3cccc(Br)c3)=NO2)(C(=O)NCC2CCCCC2)CC1 (configuration not stated)	u	-4%
67	Cc1ccc(NS(=O)(=O)c2ccc(C(=O)N3CCN(S(=O)(=O)c4ccccc4)CC3)cc2)cc1	u	u
68	C[C@H](c1ccccc1)N1C[C@H](COCc2ccccc2)Oc2cc(N3CCC[C@H]3C(N)=O)ccc2S1(=O)=O	-19%	-2%
69	O=C(NNC(=O)c1cccc(Br)c1)C(=O)N1CCCCC1	0%	-12%
70	CCOc1ccc(CCNC(=O)C(CC)n2nc(C)n3c(cc4sccc43)c2=O)cc1OCC (configuration not stated)	-8%	-19%
71	OC(c1ccc(F)c(F)c1)c1ncc(-c2cccc(F)c2)[nH]1 (configuration not stated)	-4%	0%
72	O=C1Nc2ccc(Cl)cc2/C1=C/C1CC=CCC1 (configuration not stated)	u	-12%
73	CN1C(=O)N(C)C2CC1N(C)C(=O)N2C	-3%	5%
74	O=c1nc(/C=C/c2cccn2-c2ccc([N+](=O)[O-])cc2)cc(C(F)(F)F)[nH]1	-29%	-30%
75	Cc1ccc(NC(=O)[C@@H]2CCC(=O)N2C2OC(=O)c3ccccc32)cc1Cl (some centres not stated)	-5%	4%
76	CC(Sc1nnc(-c2ccccc2F)n1C1CC1)C(=O)NC(N)=O (configuration not stated)	-5%	-8%
77	Cc1ccc(OCCn2c(C)c(/C=N/n3cnnc3)c3ccccc32)cc1	-24%	-8%
78	Cc1ccccc1-n1c(O)c(C(c2ccncc2)c2c(O)n(-c3ccccc3C)c(=O)[nH]c2=O)c(=O)[nH]c1=O	-3%&-6%	i
79	O=C(NCCc1ccccc1)C1CCCN1S(=O)(=O)c1ccc(F)cc1 (configuration not stated)	-2%	-11%
80	CCC(=O)N1CCN(c2nc(CC)nc3sc4c(c23)CCCC4)CC1	-26%	-14%
81	Cc1ccc(Cc2c(-c3ccc(Br)cc3)nc3ccc(Br)cn23)cc1	-29%	u
82	COc1ccc(OC)c(NC(=O)c2c(NCc3ccc(C)o3)sc3c2CCC(C)C3)c1 (configuration not stated)	-9%	-15%
83	COC(=O)/C(=C\c1ccc(O)cc1)c1nc2ccccc2[nH]1	-16%	-15%
84	C=CCN1C(=O)C2(OCCCO2)c2cccc(Cl)c21	-5%	-2%
85	Cc1cccc(Nc2nc(-c3ccc(F)cc3)cs2)n1	-18%	-14%
86	CC(C)(C)OC(=O)NNC(=O)c1cccs1	-11%	i
87	O=C(Oc1ccc2ccc(OC(=O)N3CCOCC3)cc2c1)N1CCOCC1	-9%	x
88	Cc1cnc(C)c(-c2cc(F)cc3c2OC(CNC(=O)C2CCOC2)C3)n1 (configuration not stated)	4%	-3%
89	COc1ccc(CNC(=O)C/C(C)=N/NC(=O)COc2ccc(C)cc2Br)cc1	-23%	-29%
90	COCCNC(=O)c1nc2ccccc2s1	-5%	-1%
91	CC(=O)N1CCCc2cc(S(=O)(=O)CCC(=O)N3CCN(c4ccccc4)CC3)ccc21	-13%	i
92	CCOC(=O)C1(O)CC(C)=NN1C(=O)c1cccc(Cl)c1 (configuration not stated)	-1%	0%
93	O=C(Oc1ccc2c(=O)c(Oc3ccc4ccccc4c3)coc2c1)c1cccnc1	-5%	-2%
94	Cc1ccc(S(=O)(=O)NC(=O)N2CCN(Cc3c(F)cccc3Cl)CC2)cc1	-15%	i
95	CCCS(=O)(=O)N1CCC(Cc2ccc(OC)cc2)(C(=O)OCC)CC1	-16%	-3%
96	O=C(NC1CC1)C1=C[C@@H](c2ccc(C(F)(F)F)cc2)C[C@@H](OCc2ccc(CO)cc2)O1	-10%	i
97	CCC[N+](C)(C)c1ccc(/C=C/c2ccncc2)cc1	x	211%[activator]
98	COc1ccc(N2CCN(C(=O)c3c(C)oc4ncnc(N5CCCCC5)c34)CC2)cc1	-18%	-8%
99	CCc1nc2ccc(C(=O)N(C)CCN(C)C)cn2c1N(C)CCC(C)C	-6%	24%
100	O=c1ccc(Cc2ccc(Cl)cc2)n[nH]1	-12%	i
101	CCc1nc2ccc(C(=O)NCc3ccc(OC)cc3)cn2c1N(C)C(=O)Cc1ccccc1	2%	-5%

In the list so far, these contain an NH in an aromatic ring:
no.	SMILES	VACV Venus inh	Vaccinia mCherry
2	CC(C)C[C@H](NC(=O)c1nc[nH]c1C(=O)NC1CCNCC1)C(=O)OC(C)(C)C	-10%	-29%
3	Cn1c(=S)[nH]c2cc(C(=O)N3CCN(C(=O)c4ccccc4)CC3)ccc2c1=O	-18%	-22%
23	Cc1ccccc1-c1cnc(C(O)c2ccc(Cl)cc2)[nH]1 (configuration not stated)	-10%	13%
38	N#CC(=C(O)COC(=O)c1ccc2c(c1)OCCO2)c1nc2ccccc2[nH]1	-6%	i
41	Cc1ccc(S(=O)(=O)N(Cc2cc3cccc(C)c3[nH]c2=O)c2ccccc2)cc1	-20%	i
49	S=c1[nH]nc(-c2ccc(Br)cc2)n1Cc1ccccc1	-4%	i
55	CCSc1nc2c(c(=O)[nH]1)C(C(C)C)C(C#N)=C(N)O2 (configuration not stated)	-4%	-10%
71	OC(c1ccc(F)c(F)c1)c1ncc(-c2cccc(F)c2)[nH]1 (configuration not stated)	-4%	0%
74	O=c1nc(/C=C/c2cccn2-c2ccc([N+](=O)[O-])cc2)cc(C(F)(F)F)[nH]1	-29%	-30%
78	Cc1ccccc1-n1c(O)c(C(c2ccncc2)c2c(O)n(-c3ccccc3C)c(=O)[nH]c2=O)c(=O)[nH]c1=O	-3%&-6%	i
83	COC(=O)/C(=C\c1ccc(O)cc1)c1nc2ccccc2[nH]1	-16%	-15%
100	O=c1ccc(Cc2ccc(Cl)cc2)n[nH]1	-12%	i

This is a random part of the collection (roughly 0.86% active in at least one column).
